TRPML1 inh = blocks the human TRPML1 channel; 390,000 compounds, 0.02% hits; TRPML1-inducible cells, Ca2+ dye fluorescence, FDSS; active compounds read low; inhibition of EC80 agonist-evoked calcium signal; activity change, negative = inhibition, % (test concentration not listed); in the data active means activity change below about -50%; inconclusive means about -30% to -50%; inactive means above about -30%;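 further: stimulus is agonist 54-4 at its EC80 concentration; on the % scale 0 is the no-effect control and ±100 the full control effect; compound concentration not given in the record; the text of the record puts the active cut at -80%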
Target sequence (Q9GZU1 whole entry, looked up): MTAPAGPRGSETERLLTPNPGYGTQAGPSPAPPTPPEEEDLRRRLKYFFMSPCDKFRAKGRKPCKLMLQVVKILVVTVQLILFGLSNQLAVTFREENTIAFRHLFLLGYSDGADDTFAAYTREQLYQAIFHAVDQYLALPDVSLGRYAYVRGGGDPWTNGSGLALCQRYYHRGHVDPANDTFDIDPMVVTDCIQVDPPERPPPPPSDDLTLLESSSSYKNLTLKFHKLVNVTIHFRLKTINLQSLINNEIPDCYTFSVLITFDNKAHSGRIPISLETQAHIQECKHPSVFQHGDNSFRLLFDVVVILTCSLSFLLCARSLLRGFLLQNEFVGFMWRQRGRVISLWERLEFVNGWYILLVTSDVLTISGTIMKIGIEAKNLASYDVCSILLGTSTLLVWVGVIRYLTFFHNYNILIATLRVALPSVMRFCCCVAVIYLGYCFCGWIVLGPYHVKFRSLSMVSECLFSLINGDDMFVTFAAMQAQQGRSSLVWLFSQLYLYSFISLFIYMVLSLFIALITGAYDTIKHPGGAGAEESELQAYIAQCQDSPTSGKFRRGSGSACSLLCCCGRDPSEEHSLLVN
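Tet-induced TRPML1-DL cells loaded with Ca8 no-wash calcium dye were read kinetically on FDSS. Compound addition was followed by EC80 agonist 54-4 (4 uM final); inhibition was read over 110 s.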
ClpP mod = qHTS Assay for Activators of ClpP; ATP-dependent Clp protease proteolytic subunit (Bacillus subtilis (strain 168)), P80244; purified B. subtilis ClpP, FRET peptide cleavage, 20 min; 340,000 compounds, 1.9% hits; Potency, µM (titrated, usually from 57.5 µM), without a hit: at the top dose activity change, negative = active; active = well fitted falling curve with a large enough effect; inconclusive = small, poorly fitted or top-dose-only effect; inactive = no such curve, though single readings can be large or run the other way; further: potency means the concentration at half of the fitted maximal effect; the source files actives as falling curves though it sought activators and does not explain the sign; nearly all actives have a fitted effect of over 65% in size; many hits overshoot -100%
Target sequence (P80244 whole entry, looked up): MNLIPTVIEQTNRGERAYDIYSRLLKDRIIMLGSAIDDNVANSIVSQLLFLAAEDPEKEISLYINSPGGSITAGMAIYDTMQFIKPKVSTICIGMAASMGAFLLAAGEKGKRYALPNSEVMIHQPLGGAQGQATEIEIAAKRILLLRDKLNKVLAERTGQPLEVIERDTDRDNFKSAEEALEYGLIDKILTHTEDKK
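Buffer: 100 mM Tris/HCl pH8, 100 mM KCl, 0.05% low protease BSA, 2.5% glycerol, 0.01% Tween-20. ClpP 10 microg/mL final; 20 min RT; delta FRET normalized to ADEP and DMSO controls.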
* = called active by the depositor; ? = inconclusive. A portion of the library, so the mix of outcomes need not match the whole.

Sequence of screens – TRPML1 inh, ClpP mod
> O=C(NCc1cccc(F)c1)c1ccc2nc(N3CCCCC3)sc2c1
→ -25, ?
> CCNC(=O)C1(C)CCCN(Cc2ccc(-c3ccccn3)cc2)C1 (stereo not drawn)
→ -17, -2.3%
> COc1cc(C(=O)N2CCc3c([nH]c4ccccc34)C2c2ccccc2)cc(OC)c1OC (stereo not drawn)
→ -6, -5.5%
> CC(=O)c1ccc(NC(=O)c2cc3sccc3n2Cc2ccc(F)cc2)cc1
→ 4, 50%
> O=C(Cn1nc(N2CCN(c3ccccc3)CC2)ccc1=O)Nc1ccc(F)cc1F
→ -3, -0.3%
> CC(C)Cn1cc(NC(=O)NCc2ccccc2)c2ccccc2c1=O
→ -14, 4.4%
> O=C(CSc1nccn1Cc1ccccc1)Nc1nc2ccccc2s1
→ 12, -5.8%
> O=C(c1[nH]c(C(F)(F)F)nc1-c1ccccc1)N1CCC(C(O)(c2ccccc2)c2ccccc2)CC1
→ ?, -0.2%
> COc1ccccc1NC(=O)N1CC=C(c2c[nH]c3ccccc23)CC1
→ -2, -5.9%
> CCOC(=O)C1=C(CNCc2ccc(Cl)cc2)NC(=O)NC1c1ccccc1 (stereo not drawn)
→ 7, -0.6%
> Cc1ccc2c(c1)c(=O)c(C(=O)c1ccncc1)cn2CC(=O)Nc1ccc(C(C)C)cc1
→ 10, 19%
> CCOc1ccccc1C(=O)NC1(C(F)(F)F)NC(=O)N(CCc2ccc(OC)c(OC)c2)C1=O (stereo not drawn)
→ -3, -2.4%
> Cc1cc(Cl)ccc1Nc1ncnc2onc(C)c12
→ 1, -5.0%
> Cc1ccccc1C(=O)NC1(C(F)(F)F)C(=O)Nc2c1c(=O)[nH]c(=O)n2-c1ccc(F)cc1 (stereo not drawn)
→ -11, 0.2%
> COc1ccc(-c2cc(C(C)=O)c(C)n2CCC(=O)NCc2ccc(C)cc2)cc1
→ 9, -0.1%
> Cc1ccc(Cl)cc1N1CCN(CCCNC(=O)Cn2ncc3c([nH]c4ccccc43)c2=O)CC1
→ -13, -7.9%
> COc1ccccc1NC(=O)c1cc(=O)c2ccc(C)c(C)c2o1
→ 20, -6.7%
> CCc1ccccc1NC(=O)Nc1nnc(N(C)Cc2ccccc2)s1
→ -5, -1.6%
> CCOC(=O)c1c(NC(=O)c2cc(-c3cccc(Cl)c3)on2)sc(C)c1C
→ 7, -0.6%
> CCOC(=O)c1[nH]c2ccccc2c1NC(=O)c1ccccc1F
→ -7, 3.7%
> CCc1ccc(-c2nn(CC(=O)Nc3ccccc3C)c3c2cnc2ccc(C)cc23)cc1
→ -16, -30%
> CCOC(=O)c1c(C)c(-c2ccccc2)n(CC(=O)NCCc2ccc(C)cc2)c1C
→ -8, -0.6%
> COc1ccccc1NC(=O)C1CCC(CNS(=O)(=O)c2ccc3c(c2)CC(C)N3C(C)=O)CC1 (stereo not drawn)
→ -1, 1.0%
> CCc1ccc(-n2nc(CO)c(C(=O)NC)n2)cc1
→ 19, 14µM*
> O=C(CN1C(=O)C2(SCC(=O)N2c2ccccc2)c2ccccc21)NCc1ccccc1Cl (stereo not drawn)
→ -12, -0.7%
> C=CCc1ccccc1OCc1nc2ccccc2n1CC
→ -15, -0.9%
> Cc1ccccc1CNC(=O)C1CCCCN1S(=O)(=O)c1ccc(F)cc1 (stereo not drawn)
→ 64, 2.2%
> CCc1nc2ccc(C(=O)N(C)CCN(C)C)cn2c1N(C)Cc1cc2ccccc2s1
→ -7, -1.7%
> Cc1ccc(-n2c(=O)c3c(c4cc(C)ccc4n3C)n(CC(=O)N3CCCC3)c2=O)cc1
→ -6, 4.8%
> Cc1ccc(S(=O)(=O)CC(=O)Nc2sc3c(c2C#N)CCCCC3)cc1
→ -12, -5.2%
> Cc1cc(=O)n(C(C)C(=O)NCc2ccccc2Cl)c2c1c(C)nn2-c1ccccc1 (stereo not drawn)
→ -15, -11%
> CCn1c(C(=O)NCc2ccc(OC)cc2)cc2sc(Cl)cc21
→ -7, 1.1%
> CCNC(=O)CC1C(=O)N(c2ccc(C)cc2)C(=O)N1Cc1ccc(C)cc1 (stereo not drawn)
→ 28, -1.3%
> CCOC(=O)c1c(NC(C)=O)c2c3c(sc2n1Cc1nc(-c2ccccc2C)oc1C)CCCC3
→ 16, -7.2%
> Cc1cc(=O)n2c(C(=O)Nc3ccc(F)c(Cl)c3)c(C(=O)Nc3cccc(C)c3C)sc2n1
→ -27, 1.3%
> Cc1ccc(S(=O)(=O)Cc2nc(-c3ccc(C(=O)NCc4ccccc4)cc3)oc2C)cc1
→ -14, 4.5%
> COc1ccc(N2CC(NC(=O)C3CCCCC3)CC2=O)cc1 (stereo not drawn)
→ 3, 1.0%
> CCCCC12CN3CC(C)(CN(C1)C3c1ccc(O)c(OC)c1)C2=O (stereo not drawn)
→ 8, 0.6%
> CCOc1ccc(NC(=O)CN2C(=O)COc3ccc(S(=O)(=O)NC4CCCC4)cc32)cc1
→ -6, -0.1%
> COc1ccccc1/C=C/c1onc(C)c1S(=O)(=O)N1CCC(C(=O)N2CCC(C)CC2)CC1
→ 14, -0.3%
> COc1cccc(Nc2c3c(nc4nncn24)CCC3)c1
→ 14, -4.7%
> CCS(=O)(=O)c1nc(S(=O)(=O)c2ccc(C)cc2)c(NC)s1
→ 9, -2.9%
> Cc1ccc(C)c(-c2nn(CC(=O)Nc3cc(F)ccc3F)c(=O)c3c2CCCC3)c1
→ 7, -1.5%
> Cc1ccc(Nc2c(-c3ccc(N(C)C)cc3)nc3nc[nH]n23)cc1
→ -8, 0.8%
> O=C(CSc1nc2c(c(=O)[nH]1)CN(Cc1ccc3c(c1)OCO3)CC2)Nc1ccc(F)c(F)c1
→ 27, 1.0%
> COc1ccc(N2CCN(C(=O)CCNS(=O)(=O)c3ccc4c(c3)CCN4C(=O)C3CC3)CC2)cc1
→ 3, -2.1%
> COc1ccc(NC(=O)CSc2nc3c(c(=O)[nH]2)CN(Cc2ccccc2)CC3)cc1Cl
→ 5, -6.3%
> C#CCn1cnc2c(cnn2-c2ccc(F)cc2)c1=O
→ 10, -8.9%
> Cc1ccccc1NC(=O)Cn1c(=O)n(Cc2ccco2)c(=O)c2ccc(C(=O)NC3CCCC3)cc21
→ -10, 0.4%
> CC1CCN(S(=O)(=O)c2ccc3c(c2)CCN3C(=O)Nc2ccc(Br)cc2F)CC1
→ 37, -11%
> O=C(CN1C=NS(=O)(=O)c2ccccc21)Nc1ccccc1F
→ 2, -1.2%
> COc1cc2oc(=O)c(CC(=O)NCc3ccc(OC)c(OC)c3)c(C)c2cc1Cl
→ -11, ?
> COc1ccc(CCNC(=O)c2cc(=O)[nH]c3ccc(S(=O)(=O)N4CCCCC4)cc23)cc1OC
→ 1, -3.2%
> O=C(NCc1cccc(Cl)c1)C1CCN(c2nn3cc(-c4ccc(F)cc4)nc3s2)CC1
→ 1, 0.1%
> O=C(NC1CC(=O)N(c2ccc(Cl)cc2)C1)c1cc2ccccc2o1 (stereo not drawn)
→ 6, -1.7%
> Oc1ccc(-c2nc(-c3ccccc3)c(-c3ccc(Br)cc3)[nH]2)cc1
→ -4, 4.6%
> COc1ccccc1N1CCN(S(=O)(=O)c2cc(-c3cc(C)no3)ccc2C)CC1
→ -9, -5.1%
> COC(=O)c1sccc1S(=O)(=O)N(CC(=O)NCc1ccc(F)cc1)c1ccc(Cl)cc1
→ 13, -0.9%
> Cn1nnc2c(NCCc3ccccc3)ncnc21
→ -2, -1.5%
> COc1ccccc1C(=O)Nc1c(C(=O)N2CCN(c3ccccc3F)CC2)oc2ccccc12
→ 23, ?

Ordered by number of heavy atoms (descending): part of the list above.
Sequence of screens – TRPML1 inh, ClpP mod
> COc1cc(C(=O)N2CCc3c([nH]c4ccccc34)C2c2ccccc2)cc(OC)c1OC (stereo not drawn)
→ -6, -5.5%
> O=C(NCc1cccc(Cl)c1)C1CCN(c2nn3cc(-c4ccc(F)cc4)nc3s2)CC1
→ 1, 0.1%
> COc1ccccc1N1CCN(S(=O)(=O)c2cc(-c3cc(C)no3)ccc2C)CC1
→ -9, -5.1%
> O=C(NC1CC(=O)N(c2ccc(Cl)cc2)C1)c1cc2ccccc2o1 (stereo not drawn)
→ 6, -1.7%
> COc1ccccc1NC(=O)c1cc(=O)c2ccc(C)c(C)c2o1
→ 20, -6.7%

(list continues)
Sequence of screens – TRPML1 inh, ClpP mod
> COC(=O)C(C)NC(=O)N1CCN(c2nnc(C)c3c(C)n(-c4ccc(Cl)cc4)nc23)CC1 (stereo not drawn)
→ 27, -13%
> CCC(C)(C)NC(=O)C1CCC(CNS(=O)(=O)c2ccc3c(c2)CC(C)N3C(C)=O)CC1 (stereo not drawn)
→ 17, -3.6%
> O=C(CSc1nnc(-c2cccc(F)c2)c(-c2cccc(F)c2)n1)NC1CCCCC1
→ -6, -10%
> COc1ccc(NC(=O)Cn2ncc3c4ccccc4n(Cc4ccccc4)c3c2=O)cc1OC
→ 26, -9.4%
> COc1cc([C@@H]2Nc3c(F)cccc3[C@@H]3C=CC[C@@H]32)cc(Br)c1OC
→ -11, -0.2%
> COc1ccccc1Cc1nc2ccccc2nc1SCC(=O)N1CCCCC1
→ 2, -1.5%
> O=C(COc1ccc(Cl)cc1)Nc1ccc(C(=O)OCc2cc(=O)n3ccsc3n2)cc1
→ -2, 3.9%
> CSCCC(NS(=O)(=O)c1cccs1)C(=O)Nc1ccc(C)c(Cl)c1 (stereo not drawn)
→ -7, 4.1%
> COC(=O)c1cccnc1-n1c(=O)c2cccnc2n(CC(=O)Nc2ccc(C)cc2C)c1=O
→ 8, -1.4%
> CC(C)c1ccc(NC(=O)CCS(=O)(=O)c2ccc3c(c2)CC(=O)N3C)cc1
→ 34, -14%
> O=C(Nc1ccc(Cl)cc1)c1cnn2c1NC(c1ccccc1)=CC2c1ccccc1 (stereo not drawn)
→ -2, 1.2%
> CCCOc1ccc(C(=O)Nc2cc(-c3nc4ccccc4[nH]3)ccc2C)cc1
→ 8, -13%
> COc1ccccc1CNC(=O)c1c[nH]c2ccc(S(=O)(=O)Nc3cc(C)cc(C)c3)cc2c1=O
→ 31, -25%
> COc1cccc(NC(=O)C2CCCN(S(=O)(=O)c3ccc4[nH]c(=O)ccc4c3)C2)c1 (stereo not drawn)
→ -28, -8.7%
> CCOc1cc(-c2ccc(OC(=O)c3ccccc3Cl)c(OC)c2)cc(=O)c2c(C)oc(C)c12
→ -2, -2.4%
> Cc1nc(SC(C)C(=O)Nc2ccccc2Cl)cc(-c2ccccc2)n1 (stereo not drawn)
→ -21, 0.1%
> Cc1ccc(C)c(OC(=O)CSc2nnc(CNC(=O)c3ccccc3)o2)c1
→ -9, 1.2%
> COc1ccc(CN2C(=O)N(c3cccc(C)c3)C(=O)C2CC(=O)Nc2ccc(F)cc2)cc1OC (stereo not drawn)
→ 6, 0.8%
> CCc1ccc(NC(=O)Cn2nnc(C(=O)Nc3cc(C)ccc3OC)c2N)cc1
→ 31, 4.4%
> CC1CCN(c2nnc(-n3cccc3CNc3cccc(F)c3)s2)CC1
→ 69, -0.2%
> COC(=O)C1CCN(S(=O)(=O)c2ccc(N3CCCCS3(=O)=O)cc2)CC1
→ 0, -1.1%
> CCCOc1cccc(C(=O)Nc2cccc(NC(=O)c3ccc(Cl)cc3Cl)c2)c1
→ 20, ?
> COC(=O)c1ccccc1NC(=O)c1ccc(COc2ccccc2Cl)o1
→ 14, -2.9%
> COC(=O)[C@H](CC(C)C)NC(=O)/C=C/[C@H]1O[C@@H](n2ccc(=O)[nH]c2=O)[C@H](O)[C@@H]1O
→ 14, -0.8%
> CCOc1ccc(C(=O)c2cn(CC(=O)Nc3ccc(Cl)cc3)c3cc4c(cc3c2=O)OCCO4)cc1
→ -11, -2.8%
> COC(=O)c1ccc(Cl)cc1NC(=O)N1CCC(CN2CCCC2)CC1
→ -6, 5.0%
> Cc1ccc2[nH]c(=O)c(CN(C(=O)c3cccc(Cl)c3)C(C)(C)C)cc2c1
→ 2, -14%
> CCOc1cccc(C2c3[nH]c4ccccc4c3CCN2C(=O)CSc2ccccc2)c1 (stereo not drawn)
→ -4, -3.7%
> COc1ccc(CNC(=O)CCc2nnc3n(CC(C)C)c(=O)c4ccccc4n23)cc1
→ -18, -6.6%
> Cc1ccc(OCC(=O)Nc2ccc(Cl)c(-c3nc4ncccc4o3)c2)cc1C
→ 1, ?
> CCOC(=O)C1=C[C@@H](C(C)(C)C)N(S(=O)(=O)c2ccccc2C)[C@H]1c1ccc(Cl)cc1
→ -18, -2.1%
> COc1ccc(Cc2nnc(C(=O)NCCCN3CCN(c4ccccc4F)CC3)o2)cc1OC
→ -8, -2.3%
> Cc1cccc(-n2nc(C)c(C(=O)Nc3cc(C)ccc3C)c2-n2cccc2)c1
→ 28, ?
> Nc1c(C(=O)Nc2ccc(OC(F)(F)F)cc2)sc2nc(-c3ccncc3)ccc12
→ 3, -1.5%
> CN1CCN(CCCNC(=O)Cn2c(-c3cccs3)cc3cc(Cl)ccc32)CC1
→ 17, 32µM*
> CCOc1ccccc1NC(=O)c1c(NCc2cccs2)sc2c1CCCCC2
→ 3, 0.1%

Screening data deposited in PubChem by National Center for Advancing Translational Sciences (NCATS).
